Assay outcomes (PubChem)
Calb FLC – C. albicans growth inhibition with fluconazole, primary screen, CaCi-2 strain, Alamar Blue fluorescence; actives 0.57% (n = 300,000); growth inhibition, % (concentration not given with the values); C. albicans CaCi-2 (fluconazole-resistant clinical isolate) + fluconazole, 48 h; AID 1979, 2009;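 active = most replicates above 75%; inconclusive = exactly half above 75%; inactive = most below 75%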;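 also: all wells also contain fluconazole at 8 µg/ml as a sub-toxic cotreatment; 0% = median of DMSO wells and 100% = median of geldanamycin control wells; wells of about 8 µL received 7.5 nL stock; the first replicate is given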
RanGTP-Impb inh – inhibitors of RanGTP-importin-beta interaction, primary screen, biochemical, FRET, CFP-Ran, YFP-importin-beta, homogeneous. actives 1.1% (n = 300,000). cell-free CFP-Ran/YFP-importin-beta FRET ratio. inhibition, % (concentration not given with the values). Ran GTPase (GTP-bound) - importin-beta complex. AID 2216, 2009;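 active = most replicates above 15%; inconclusive = exactly half above 15%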;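 also: 0% = DMSO wells and 100% = Ran loaded with GDP instead of GTP; wells of about 40 µL received 100 nL stock; the first replicate is given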
LANA-H2A inh – blockers of LANA interaction with H2A/H2B – biochemical, FP readout, HTS, primary screen. actives 0.6% (n = 320,000). cell-free LANA-H2A/H2B peptide, fluorescence polarization. AID 2629, 2010. inhibition, % (test concentration not listed). Protein LANA1 (Human herpesvirus 8 type P (isolate GK18)), Q9QR71; in the data active = inhibition mostly above about 10%, no sharp cut-off; inactive = mostly below about 6.7%;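 also: stock transfer was 7.5 nL into about 10 µL; 0% = median of vehicle wells and 100% = median of positive control wells; one replicate is shown; the record names a cut of 25% in any replicate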
Target sequence (Q9QR71 whole entry, looked up): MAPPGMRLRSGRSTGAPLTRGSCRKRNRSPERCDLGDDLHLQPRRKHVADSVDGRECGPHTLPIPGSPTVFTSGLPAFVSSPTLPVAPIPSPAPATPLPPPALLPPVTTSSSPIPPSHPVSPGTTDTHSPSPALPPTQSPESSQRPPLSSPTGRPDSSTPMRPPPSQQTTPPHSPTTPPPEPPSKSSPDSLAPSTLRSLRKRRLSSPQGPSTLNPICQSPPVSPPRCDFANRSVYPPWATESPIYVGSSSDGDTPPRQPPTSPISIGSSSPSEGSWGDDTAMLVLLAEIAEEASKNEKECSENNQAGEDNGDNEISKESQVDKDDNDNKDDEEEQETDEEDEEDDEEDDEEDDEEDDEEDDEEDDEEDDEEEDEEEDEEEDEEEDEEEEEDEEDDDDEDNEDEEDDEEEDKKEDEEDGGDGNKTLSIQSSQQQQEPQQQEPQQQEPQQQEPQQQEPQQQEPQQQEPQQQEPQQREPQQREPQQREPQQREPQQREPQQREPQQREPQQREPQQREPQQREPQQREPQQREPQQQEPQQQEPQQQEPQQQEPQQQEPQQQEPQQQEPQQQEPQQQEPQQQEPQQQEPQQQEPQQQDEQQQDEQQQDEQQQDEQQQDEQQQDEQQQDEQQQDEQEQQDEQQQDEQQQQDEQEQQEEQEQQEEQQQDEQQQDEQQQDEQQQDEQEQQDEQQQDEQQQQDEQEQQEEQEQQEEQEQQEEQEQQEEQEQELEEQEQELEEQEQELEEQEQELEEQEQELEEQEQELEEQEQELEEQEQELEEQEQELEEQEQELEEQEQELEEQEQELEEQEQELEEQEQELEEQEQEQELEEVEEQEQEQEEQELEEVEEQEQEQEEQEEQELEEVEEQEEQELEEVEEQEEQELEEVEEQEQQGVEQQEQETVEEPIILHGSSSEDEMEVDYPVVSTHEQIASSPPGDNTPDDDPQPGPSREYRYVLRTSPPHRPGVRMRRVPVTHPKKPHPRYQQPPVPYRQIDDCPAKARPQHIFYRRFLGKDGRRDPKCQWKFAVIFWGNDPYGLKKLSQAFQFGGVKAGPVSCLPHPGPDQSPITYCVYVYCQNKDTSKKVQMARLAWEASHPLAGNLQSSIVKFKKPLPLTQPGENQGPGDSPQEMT
Beta apoptosis – inhibitors of cytokine-induced beta cell apoptosis, primary screen, luminescence. INS-1E cytokine-induced death, ATP luminescence, 48 h; percent of positive-control rescue, neutral wells zero. protection from apoptosis, % (concentration not given with the values). actives 0.8% (n = 300,000);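 active = all replicates at 75% or more, or half of them and the mean; inconclusive = half reach 75% but not the mean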;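 also: 0% = cytokine-treated negative control wells and 100% = positive control rescue; higher means more ATP so stronger rescue from cytokine killing; wells of about 40 µL received 100 nL stock; the first replicate is given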
UCH37 inh – inhibitors of human UCH37 deubiquitinase, primary screen, biochemical, Ub-AMC cleavage, fluorescence | AID 588478, 2011 | actives 0.33% (n = 330,000) | inhibition, % (no concentration beside the values) | Ubiquitin carboxyl-terminal hydrolase isozyme L5 (Homo sapiens), Q9Y5K5 | purified proteasome/UCH37;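 active = mean of two replicates above 20%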;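 also: 0% = compound-free wells with enzyme and 100% = wells lacking proteasome; stock transfer was 100 nL into about 20 µL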
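Signal – fluorescence, ex 355 nm, em 460 nm · System – Proteasome-bound UCH37 · Input – 0.15 nM proteasome as dispensed · Timing – 30 min preincubation with enzyme, 25 min cleavage at room temperature · Read-out basis – percent inhibition of cleavage signal versus uninhibited and no-proteasome wells · Medium – Tris-HCl pH 7.4 with ATP-MgCl2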
T cruzi inh – inhibitors of intracellular T. cruzi growth, primary screen, luminescence, NIH3T3 host cells; T. cruzi beta-gal in NIH3T3, 90 h; inhibition, % (concentration not given with the values); AID 1885, 2009; actives 1.4% (n = 300,000);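 active = mean inhibition across valid replicates above about 55%, limit read from the data; inconclusive = mean below that limit but half or more replicates reach it; inactive = mean below it, under half of replicates reach it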;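 also: signal also drops with host cell toxicity which is not excluded here; 0% = plate median of DMSO wells and 100% = zero luminescence signal; higher percent means less beta-gal luminescence so fewer parasites; stock transfer was 50 nL into about 50 µL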
Beta2AR agonist – beta2AR agonists driving receptor internalization, primary screen, cell-based, FAP fluorogen, flow cytometry | Beta-2 adrenergic receptor (Homo sapiens), P07550 | AID 504454, 2011 | response, % (test concentration not listed) | Am2.2-beta2AR cells; reference of the scale not given here | actives 0.43% (n = 340,000);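 active = response above a set limit, near 3 SD of response in nonfluorescent compounds, cut at about 42% in these data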;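 also: stock transfer was 100 nL into about 11 µL; a reference agonist was the positive control; negative values mostly stem from fluorescent compounds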
A1 inh – caspase 3/7 activation in MEF A1-2A-BIM cells, primary screen, A1 inhibitor project, cell-based, luminescence, HTS. actives 0.066% (n = 330,000). Caspase-Glo 3/7 luminescence, 3 h; percent of clofoctol response, vehicle zero. caspase activation, % (no concentration beside the values);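 active = over half of replicate activation scores above 10%, or exactly half above 10 with the replicate mean above 10; inconclusive = replicate mean below 10 yet half the replicates above 10; inactive = over half of replicates below 10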;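 also: wells of about 30 µL received 50 nL stock; many hits fall short of the cut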
Numbers without * were called inactive; ? = inconclusive; . = no result given.

SMILES	Calb FLC	RanGTP-Impb inh	LANA-H2A inh	Beta apoptosis	UCH37 inh	T cruzi inh	Beta2AR agonist	A1 inh
N#Cc1ccc(-c2csc(NC(=O)c3ccc(N4C(=O)CCC4=O)cc3)n2)cc1	-3.5	-1.3	0.4	-0.8	-21.4	-7.9	4.7	0.1
CC(C)NC(=S)N/N=C/c1sc(N2CCCCC2)nc1-c1cccs1	25.6	3.1	-4.4	11.3	.	9.1	-6.7	-1.0
COC(=O)c1nc(NC(=O)C(C)C)n[nH]1	-8.1	6.5	8.2	5.4	4.9	-1.8	4.0	-0.2
COc1ccc(C2(CNC(=O)c3ccccc3[N+](=O)[O-])CCOCC2)cc1	2.3	4.6	-4.6	-1.5	1.9	13.0	-7.9	0.2
Cc1ccc(Nc2ncccc2C(N)=O)cc1[N+](=O)[O-]	51.5	-2.6	-2.3	-14.1	2.8	-17.8	-1.4	-2.2
COc1cc(C(=O)N[C@@H](Cc2c[nH]c3ccccc23)C(=O)O)cc(OC)c1OC	-6.7	-2.2	2.9	-0.6	4.7	-3.6	-9.5	0.5
COc1ccc2oc(C(=O)N(CC(C)C)C3CCS(=O)(=O)C3)c(C)c2c1 (stereo not given)	8.1	-2.1	-95.4	0.0	1.9	18.2	1.1	0.4
CCC(=O)c1ccc(OCC(=O)Nc2ccccc2N2CCCCC2)cc1	-2.7	2.1	4.1	0.3	1.0	1.1	-7.2	-0.3
Cc1nnnn1-c1ccc(CC(=O)O)cc1	-4.9	6.6	1.2	-7.0	1.2	-27.5	0.6	0.4
CC(=O)NC1C(Oc2ccccc2C)OC2COC(c3ccco3)OC2C1O (stereo not given)	-3.6	3.6	-1.7	-4.7	1.2	-15.5	7.7	-0.1
C[C@H]1COC(=O)[C@H](CC(=O)OC(C)(C)C)C/C=C\C[C@@H](CC(=O)NCCO)C(=O)N1	.	.	-0.7	-2.7	1.4	.	-5.3	-0.1
CCOC(=O)c1ccc(-n2c(C)nc3ccccc3c2=O)cc1	2.8	-3.6	-5.0	3.1	-0.1	3.6	8.2	0.1

Grouped by structure, the compounds so far with a carbonyl joined to an NH by a bond outside any ring.
SMILES	Calb FLC	RanGTP-Impb inh	LANA-H2A inh	Beta apoptosis	UCH37 inh	T cruzi inh	Beta2AR agonist	A1 inh
N#Cc1ccc(-c2csc(NC(=O)c3ccc(N4C(=O)CCC4=O)cc3)n2)cc1	-3.5	-1.3	0.4	-0.8	-21.4	-7.9	4.7	0.1
COC(=O)c1nc(NC(=O)C(C)C)n[nH]1	-8.1	6.5	8.2	5.4	4.9	-1.8	4.0	-0.2
COc1ccc(C2(CNC(=O)c3ccccc3[N+](=O)[O-])CCOCC2)cc1	2.3	4.6	-4.6	-1.5	1.9	13.0	-7.9	0.2
Cc1ccc(Nc2ncccc2C(N)=O)cc1[N+](=O)[O-]	51.5	-2.6	-2.3	-14.1	2.8	-17.8	-1.4	-2.2
COc1cc(C(=O)N[C@@H](Cc2c[nH]c3ccccc23)C(=O)O)cc(OC)c1OC	-6.7	-2.2	2.9	-0.6	4.7	-3.6	-9.5	0.5
CCC(=O)c1ccc(OCC(=O)Nc2ccccc2N2CCCCC2)cc1	-2.7	2.1	4.1	0.3	1.0	1.1	-7.2	-0.3
CC(=O)NC1C(Oc2ccccc2C)OC2COC(c3ccco3)OC2C1O (stereo not given)	-3.6	3.6	-1.7	-4.7	1.2	-15.5	7.7	-0.1
C[C@H]1COC(=O)[C@H](CC(=O)OC(C)(C)C)C/C=C\C[C@@H](CC(=O)NCCO)C(=O)N1	.	.	-0.7	-2.7	1.4	.	-5.3	-0.1

The results go on:
SMILES	Calb FLC	RanGTP-Impb inh	LANA-H2A inh	Beta apoptosis	UCH37 inh	T cruzi inh	Beta2AR agonist	A1 inh
O=C(COC(=O)CNC(=O)c1ccccc1Cl)Nc1ncc(C(F)(F)F)cc1Cl	-7.6	-3.1	-2.4	-3.0	2.0	-4.2	1.3	0.0
CCN=C1SC(CC(=O)Nc2ccc(N3CCOCC3)cc2)C(=O)N1CC (stereo not given)	-2.8	1.2	-4.6	-2.0	-0.1	-29.9	-0.1	-0.1
Cc1cc(=O)n(C(C)(C)C)c(=O)n1Cc1ccccc1	5.5	6.4	4.7	-4.2	1.5	-8.5	4.2	-1.1
COc1cc(C(=O)Nc2sc3c(c2C(=O)O)CCC(C)C3)cc(OC)c1OC (stereo not given)	-2.5	1.5	-1.6	-1.8	-8.2	-8.4	4.2	1.0
O=C(CN1CCN(c2ccccn2)CC1)Nc1cccc(Cl)c1Cl	26.8	1.4	3.6	-6.9	5.9	-2.4	14.0	-0.8
Cc1nn(-c2ccccc2)nc1C(=O)NN	-4.7	1.0	5.7	-4.3	7.0	5.4	0.6	0.6
O=C(O)C1CCC(CNCc2ccccc2Cl)CC1 (stereo not given)	23.3	-0.3	-0.7	-0.6	.	-8.6	2.0	0.9
Cc1ccccc1OCC(=O)OCC(=O)Nc1ccc(N2CCOCC2)cc1	-2.8	0.8	-5.5	0.4	3.3	-4.9	-3.0	0.7
CC(C)CCCN1C(Nc2ccccc2)=NC[C@@H]1CC(C)C	-32.3	-2.2	0.1	23.0	1.3	15.9	-1.9	1.3
COC(=O)/C(C#N)=C/c1ccc(N2CCOCC2)c([N+](=O)[O-])c1	-2.6	-0.2	-4.5	.	6.4	-7.8	8.3	-0.7
Cn1cc(CN2CCCC(C(=O)c3nccn3C)C2)c(-c2cccc(Cl)c2)n1 (stereo not given)	-14.7	-1.5	2.3	0.0	4.3	-0.9	-3.4	0.4
O=C(N/N=C/c1ccc(O)cc1)c1ccc(NC(=O)c2ccccc2Br)cc1	-11.2	-1.4	1.8	1.9	.	-1.8	8.2	-0.8
COc1cc(C2C3=C(CC(C)(C)CC3=O)OC3=C2C(=O)CC(C)(C)C3)cc([N+](=O)[O-])c1O	39.9	?	1.2	.	6.1	4.0	-2.2	0.4
O=C(CNCCO)NC12CC3CC(CC(C3)C1)C2	4.0	?	-2.7	-1.4	0.2	10.6	0.3	-0.9
C=CCNC(=O)/C(C#N)=C/c1c(N2CCN(c3cccc(Cl)c3)CC2)nc2c(C)cccn2c1=O	11.7	1.9	-0.6	11.0	5.0	7.3	1.6	1.5
COc1ccc(-c2nc3ccccc3o2)cc1NC(=O)c1ccc(Br)o1	2.7	0.6	-1.8	9.4	-3.5	-1.1	-5.8	0.2
CCOc1ccc(C(=O)NCC(=O)OC2CCOC2=O)cc1OCC (stereo not given)	1.5	1.8	0.2	.	1.8	-3.2	1.1	-0.2

Given field by field: 2 of the compounds above
structure: CCOC(=O)c1ccc(-n2c(C)nc3ccccc3c2=O)cc1
  Calb FLC: 2.8
  RanGTP-Impb inh: -3.6
  LANA-H2A inh: -5.0
  Beta apoptosis: 3.1
  UCH37 inh: -0.1
  T cruzi inh: 3.6
  Beta2AR agonist: 8.2
  A1 inh: 0.1

structure: O=C(CN1CCN(c2ccccn2)CC1)Nc1cccc(Cl)c1Cl
  Calb FLC: 26.8
  RanGTP-Impb inh: 1.4
  LANA-H2A inh: 3.6
  Beta apoptosis: -6.9
  UCH37 inh: 5.9
  T cruzi inh: -2.4
  Beta2AR agonist: 14.0
  A1 inh: -0.8
